# miR-21 reporter = raises the signal of a miR-21 reporter | HeLa miR-21 FLuc reporter, luciferase, 48 h | Potency, µM (series often up to 38.3 µM), inactives show at the top dose reporter change, positive = more light | 340,000 tested, under 10 active | AID 2288; active = well fitted rising curve with a large enough effect; inconclusive = small, poorly fitted or top-dose-only effect; inactive = no such curve, though single readings can be large or run the other way;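 also: % of control where 0% means no effect; miR-21 action dims this reporter so a rising signal means less miR-21 action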
#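 HeLa cells stably expressing CMV-driven firefly luciferase with a downstream miR-21 binding sequence, endogenously expressing miR-21, were treated with titrations (up to about 40uM final) for 48 hours at 37 degree Celsius. Luciferase luminescence was read after lysis.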
# GLA inh pH 4.5 = alpha-galactosidase A (human) inhibition, pH 4.5; activity change, negative = inhibition, % at 105 µM; P06280; purified enzyme, 4-MU-alpha-Gal fluorescence, pH 4.5; 230,000 tested, under 10 active; inconclusive = small, poorly fitted or top-dose-only inhibition, or a rising curve; inactive = flat fitted curve, though single readings scatter; no compound was filed as active;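 also: 0% = full activity with enzyme and -100% = basal without enzyme; dose as in the result columns while the protocol names 77 µM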
# Target sequence (P06280 whole entry, looked up): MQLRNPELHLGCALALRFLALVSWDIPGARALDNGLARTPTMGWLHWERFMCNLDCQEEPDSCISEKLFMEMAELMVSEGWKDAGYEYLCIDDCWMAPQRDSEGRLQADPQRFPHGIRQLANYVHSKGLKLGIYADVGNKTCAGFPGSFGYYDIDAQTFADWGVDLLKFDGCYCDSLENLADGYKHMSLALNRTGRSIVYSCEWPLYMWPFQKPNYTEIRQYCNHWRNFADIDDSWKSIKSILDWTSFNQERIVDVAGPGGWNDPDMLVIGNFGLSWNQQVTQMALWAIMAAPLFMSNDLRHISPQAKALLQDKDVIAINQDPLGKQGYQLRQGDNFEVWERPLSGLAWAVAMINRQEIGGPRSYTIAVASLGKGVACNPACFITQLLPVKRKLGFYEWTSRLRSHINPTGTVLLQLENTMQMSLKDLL
# Rango complex inh = prevents formation of the Rango-importin beta complex; 0.031% of 340,000 active; Potency, µM (doses to about 92.2 µM), for inactives: at the top dose inhibition of complex formation; Rango CFP/YFP FRET sensor + importin beta, 45 min; Q14974; active = rising FRET ratio curve, often small or poorly fitted; inconclusive = mostly compound fluorescence or quenching in the first reads; inactive = flat curves in all reads;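 also: potency is read from the fitted curve at half-maximal effect; 0% = DMSO wells and 100% = buffer wells lacking importin beta; nearly all actives have a fitted effect of over 15% in size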
#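 FRET biosensor (snurportin 1 IBB flanked by EYFP and cerulean), 50 nM, with compound 5 min, then 0.125 microM importin beta in PBS, 1 mM DTT, 0.02% Tween-20, 0.1% BSA. CFP/YFP ratio read after 45 min at room temperature; pre-read flags interference.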
# Rango dissoc inh = inhibition of RanGTP-driven Rango-importin beta dissociation; Biochemical FRET Rango-importin beta, RanGTP-induced dissociation; AID 540253; Potency, µM (titrated, usually from 46.1 µM), for inactives: top-dose activity change, negative = inhibition; 0.071% of 340,000 active; active means falling FRET ratio curve, often poorly fitted, with flat reads before Ran was added; inconclusive means other falling curves, or compound fluorescence or quenching; inactive means flat or rising ratio curve;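 also: potency is read from the fitted curve at half-maximal effect; % of control where 0% means no effect; nearly all actives have a fitted effect of over 45% in size; -100% = wells without RanGTP and RCC1; the record marks most hits as doubtful in a second field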
#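 Quantitative HTS using a FRET biosensor: 0.1 uM Rango, 0.25 uM importin beta, 0.6 uM Ran, 2 mM GTP, 0.2 uM RCC1 final, PBS with DTT, Tween-20 and BSA. Post-read taken 45 min after Ran addition.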
# The depositor's hits bear a star; u = inconclusive; x = not tested or not shown; & = joins results of further samples. Not all compounds are listed (hit frequency here may not be typical).
SMILES,miR-21 reporter,GLA inh pH 4.5,Rango complex inh,Rango dissoc inh
CCCCN(C(=O)C1CCN(C(=O)c2ccccc2C)CC1)c1c(N)n(CCCC)c(=O)[nH]c1=O,-0.1%,x,0.2%,5.9%
O=S(=O)(c1ccc(Cl)cc1)N1CCN(C2CCN(Cc3ccccc3)CC2)CC1,-4.8%,3.9,3.6%,4.9%
Cc1ccc(OCc2cc(C(=O)NC3CCCCC3)no2)cn1,15.4%,x,0.9%,-13.7%
CCOC(=O)c1nn(-c2ccccc2)c2nnc(Cc3ccc(C)cc3)c(=O)n12,-6.7%,-0.7,-4.4%,-5.1%
Cc1ccc(S(=O)(=O)N2CCCC2C(=O)OCc2nc3ccccc3s2)cc1 (stereo unspecified),-13.8%,-5.7,-0.7%,10.9%
CCc1ccc(N(C(=O)c2snc(C(N)=O)c2N)C(C(=O)NC2CCCC2)c2ccncc2)cc1 (stereo unspecified),-22.0%,x,-3.2%,0.0%
C#CCOCCOCCOCCNc1nc(N2CCN(C(=O)[C@H](CCCCN)n3cc([C@@H](N)C(C)CC)nn3)CC2)nc(N2CCN(C(=O)[C@H](Cc3ccc(O)cc3)n3cc([C@@H](N)CC(C)C)nn3)CC2)n1 (stereo partly specified),0.6%,2.5,-0.7%,-5.4%
OC(CN1CCN(c2ccc(C(F)(F)F)cn2)CC1)c1ccccc1 (stereo unspecified),-5.8%,x,2.8%,-1.4%
O=C(NCCS(=O)(=O)N1CCN(c2cccc(Cl)c2)CC1)C1CCCC1,x,x,0.5%,12.7%
CNC(=S)NNC(=O)c1cc(-c2cccnc2)nc2ccccc12,-31.5%,x,3.5%,9.3%
CCN1CCc2c(sc(NC(=S)NC(=O)c3ccccc3)c2C#N)C1,-29.6%,-1.0,u,u
CCn1c(COc2cccc(OC)c2)nnc1SCC(=O)N1CCOCC1,-7.5%,1.8,-3.2%,-3.1%
Cc1ccc(C(=O)Oc2oc(-c3ccccc3)nc2C=Nc2ccc(N(C)C)cc2)cc1,-15.7%,-0.8,u,-11.8%
O=C(Nc1cc(Cl)cc(Cl)c1)C1CCCC1,0.9%,x,1.4%,-6.8%
COc1ccccc1CCNC(=O)C1CCCO1 (stereo unspecified),-1.2%,-3.5,-0.8%,-9.9%
COc1cc(CN2CCC(n3nccc3NC(=O)CCCc3ccccc3)CC2)ccc1F,19.7%,x,0.1%,-8.3%
CC(C)(C)c1ccc(OCC(=O)N/N=C/c2ccc(N3CCOCC3)cc2)cc1,-2.2%,-0.7,u,-15.1%
Cc1[nH]n(-c2ccccc2)c(=S)c1C=NCCCN=Cc1c(C)[nH]n(-c2ccccc2)c1=S,-1.1%,4.6,5.5%,6.7%
O=C(C1=C(O)C(=O)N(CCCN2CCOCC2)C1c1ccccn1)c1cccs1 (stereo unspecified),-21.2%,1.9,x,x
CC(=O)c1cc(CN2CCC(N3CCC(C(=O)N4CCCC4)CC3)CC2)cs1,-9.2%,-5.6,-4.6%,-8.7%
Cc1nnc(NC(=O)c2ccc3ccccc3c2)o1,-15.2%,-0.6,-4.1%,-4.3%
CC(=O)c1ccc(NC(=O)COC(=O)Cn2cnc3ccccc32)cc1,x,x,-1.0%,1.5%
CN(C)S(=O)(=O)Nc1cccc(-c2cn3c(n2)SCC3)c1,-7.2%,x,-2.0%,-8.9%
NC(=O)C1(N2CCCCC2)CCN(C(=O)c2cccs2)CC1,0.0%,3.5,-1.0%,-5.0%
Cc1ccc(C)c(OCC(O)CN2CCC(C)CC2)c1C (stereo unspecified),0.7%,4.3,-2.1%,0.6%
COc1ccc(CCNC(=O)c2cccs2)cc1,-29.6%,x,-0.2%,-6.8%
Cc1sc2nc(C3CC3)nc(SCC(=O)N3CC(=O)Nc4ccccc43)c2c1C,-3.4%,6.1,-0.3%,-16.1%
COc1ccc(-c2noc(CCCC(=O)NC3CCCCC3)n2)cc1,15.5%,x,-1.0%,-0.6%
O=C(CSc1nnc(NC(=O)C2CC2)s1)Nc1cccc(F)c1,-14.0%,x,-0.2%,4.0%
CCSc1nc(-c2ccc(OC)cc2)ccc1C#N,-15.0%,-1.0,-0.2%,-3.5%
CCC(C)[C@H](NC(=O)[C@@H]1Cc2ccccc2CN1)C(=O)Nc1ccc2c(c1)OCO2 (stereo partly specified),-31.3%,x,-3.5%,13.2%
COc1ccc(CCNS(=O)(=O)c2ccc(Br)cc2)cc1,3.6%,x,1.7%,-14.1%
COc1ccc(CN2C(=O)c3cccnc3C2=O)cc1S(=O)(=O)N1CCOc2ccc(Cl)cc21,3.3%,x,-0.5%,9.1%
Cc1cc2nc(-c3ccccc3)cc(=O)n2[nH]1,-16.7%,-1.6,-2.6%,8.6%
CCOc1c(CNCCCSc2nc(C)cc(C)n2)cccc1OC,1.3%,x,0.4%,13.4%
O=C(O)c1ccc(N2C(=O)CC(N3C(=O)/C(=C/c4ccc(Cl)cc4)SC3=S)C2=O)cc1 (stereo unspecified),0.8%,0.6,0.6%,-11.8%
Cc1sc(NC(=O)CN2CCCC2)nc1-c1ccc2c(c1)CCN2C(=O)c1ccc(F)cc1,-0.7%,x,-2.7%,-24.5%
Cc1cccc(C(=O)Nc2onc(C)c2C#N)c1,-8.2%,-13.2,0.0%,0.2%
C[C@H]1CN([C@@H](C)CO)C(=O)Cc2cc(NC(=O)CCC(F)(F)F)ccc2O[C@H]1CN(C)S(=O)(=O)c1ccc(F)cc1,x,x,-2.4%,-20.1%
Cn1c(=O)n(C)c2cc(NC(=O)C(F)(F)F)ccc21,0.7%,-7.7,4.0%,-9.8%
COc1ccc(Cn2c(CCC(=O)NCCC(C)C)nc3ncccc3c2=O)cc1,-5.1%,x,0.2%,-19.0%
Cc1ccc(S(=O)(=O)N(CC(=O)N/N=C/c2cccc(Cl)c2)c2cccc3cccnc23)cc1,-3.2%,10.5,-3.4%,0.0%
O=C(C1CC(=O)N(C2CCCCC2)C1)N1CCN(c2ccccc2)CC1 (stereo unspecified),-1.5%,x,1.1%,18.6%
CN(C)c1ccc(-c2nn3c(-c4ccc(Cl)cc4)nnc3s2)cc1,-1.3%,-0.4,-0.5%,-10.4%
CCCCNc1ccc(C(CC(N)=O)NC(=O)Cc2ccc(Br)cc2)cc1[N+](=O)[O-] (stereo unspecified),0.7%,2.0,0.2%,15.9%
Cc1ccc(NC(=O)CN(C)C(=O)c2ccccc2Sc2ccccc2C#N)cc1,x,x,1.0%,0.9%
Cc1cc(C)c(C#N)c(N2CCN(c3ccc(F)cc3)CC2)n1,-3.9%,x,-2.3%,-7.6%
COc1ccc([C@H]2C=C(C(=O)O)O[C@@H](OCCCCO)C2)cc1,-1.8%,10.3,-1.7%,4.3%
O=C(CSc1nc2ccncc2[nH]1)Nc1ccccc1C(F)(F)F,1.4%,-1.7,1.4%,13.5%
CN(C)c1ncc(S(=O)(=O)c2ccc(Cl)cc2)c(-c2ccccc2)n1,-3.5%,-8.9,4.6%,0.9%
COc1cccc(NC(=S)N2CCC(Cc3ccccc3)CC2)c1,-6.3%,x,-1.7%,23.6%
COc1ccc(Cl)c2sc(N3CCN(C(=O)c4ccco4)CC3)nc12,x,x,-2.1%,7.4%
O=C(COC(=O)CCCSc1nc2ccccc2[nH]1)Nc1ccc(Oc2ccccc2)cc1,-15.6%,-5.2,1.9%,6.1%
COc1cc(/C=C(/C#N)c2ccccc2F)ccc1OCc1ccccc1,-22.2%,6.9,u,-12.6%
Cc1ccc(-c2ccc(=O)n(CC(=O)NCc3ccc(F)cc3)n2)cc1,3.5%&-0.1%,-5.3,7.6%,-6.1%
OCC(O)C1OC(Oc2ccccc2)C(O)C(O)C1O (stereo unspecified),x,x,u,-1.4%
CC1(c2ccc3ccccc3c2)NC(=O)N(CC(=O)N2CCN(Cc3ccccc3)CC2)C1=O (stereo unspecified),x,x,0.4%,21.9%
CCOc1ccc(-n2c(=S)sc3c(=O)n(-c4ccc(F)cc4)c(SCC(=O)O)nc32)cc1,0.3%,x,-0.3%,3.8%
CCOC(=O)C1=C(CNCCc2ccc(Cl)cc2)NC(=O)NC1c1cccc([N+](=O)[O-])c1 (stereo unspecified),-0.4%,-12.3,-1.1%,-1.4%
CC1CCCC(C)N1/N=C/c1cccc([N+](=O)[O-])c1 (stereo unspecified),-7.5%,x,1.0%,0.4%

# Carrying on:
SMILES,miR-21 reporter,GLA inh pH 4.5,Rango complex inh,Rango dissoc inh
COc1ccc(OCC(=O)OC(C)CN2CCOCC2)cc1 (stereo unspecified),-3.8%,-0.3,-0.5%,-1.4%
COc1ccc(CNC(=O)CN(C(=O)c2csnn2)c2ccccc2F)cc1,-3.3%,x,6.3%,7.6%
CC(=O)N(c1ccc2oc(=O)sc2c1)S(=O)(=O)c1ccc(C(=O)O)cc1,-2.1%,x,2.0%,2.9%
Cc1ccc(NC(=S)N2CCC(N(C)CC3CCCO3)CC2)cc1C (stereo unspecified),-1.0%,-9.5,-1.3%,-5.1%
CCOc1ccc(NC(=O)COc2ccc(S(=O)(=O)N3CCOCC3)cc2)cc1,x,x,3.5%,-12.8%
Cc1cc(NC(=O)c2cc(-c3ccncc3)nc3c(C)cccc23)no1,u,-1.8,-2.9%,-0.3%
CCCCN1C(=O)C(NC(=O)c2cccnc2)(C(F)(F)F)C2=C1CC(C)(C)CC2=O (stereo unspecified),-8.3%,4.1,-1.6%,12.2%
CCOC(=O)c1c(NC(=O)c2ccccc2C)sc2c1CC(C)(C)OC2,-3.2%,-4.8,0.4%,11.9%
CC(C)Oc1ccc(CNC(=O)CCC(=O)N2CCSc3ccccc32)cc1,1.4%,x,-1.8%,16.4%
Cc1ccc2nc(-c3ccc(NC(=O)C(C)N4C(=O)c5ccccc5C4=O)cc3)sc2c1 (stereo unspecified),-68.2%,-4.2,-1.1%,-12.6%
CCOC(=O)CNC(=O)C1c2cc(OC)c(OC)cc2C(=O)N(C)C1c1ccccc1F (stereo unspecified),-4.6%,-0.5,5.3%,9.9%
COCCCNC(=O)C(F)(F)C(F)(F)C(=O)NCCCOC,0.3%,2.3,-0.1%,2.8%
Cc1cc(C)n(CC(=O)c2cccc(N)c2)n1,-2.0%,8.3,1.6%,1.0%
O=C(Nn1c(SCc2ccccc2F)nc2ccsc2c1=O)c1ccccc1,-24.0%,4.2,2.5%,5.8%
COc1ccc(C2=NOC(C(=O)NCc3ccccc3)C2)cc1 (stereo unspecified),5.0%,-9.3,-6.0%,-6.5%
COC(=O)c1ccc(COc2ncnc3ccccc23)o1,-4.5%,x,-3.8%,u
CCOC(=O)/C(C#N)=C\c1cccnc1,1.9%,7.2,-7.0%,-4.6%
CCOC(=O)c1sc(NC(=O)c2ccc(OC(C)=O)cc2)nc1C,-25.4%,7.3,-1.9%,-0.5%
CCC(=O)c1cn(CC(=O)NCc2cccnc2)c2ccccc12,-8.1%,8.4,3.4%,4.4%
COC(=O)c1ccc(C(=O)OC)c(NC(=S)N2CCC(N3CCCCC3)CC2)c1,-0.3%,10.4,u,1.0%
CCCCNC(=O)/C=C/c1ccc(OC)c(Br)c1,-7.2%,-5.2,2.9%,19.0%
COc1ccc(C(CNC(=O)c2cccc(S(=O)(=O)Nc3ccccc3OC)c2)N2CCCCC2)cc1 (stereo unspecified),x,x,0.5%,6.1%
Cc1nc(C(=O)N2CCCC(C(=O)c3ccc(Cl)cc3)C2)cs1 (stereo unspecified),-0.7%,-4.5,-0.1%,-0.2%

# Single values from the entries so far:
# CCC(=O)c1cn(CC(=O)NCc2cccnc2)c2ccccc12 | Rango complex inh: 3.4%
# CCOC(=O)c1sc(NC(=O)c2ccc(OC(C)=O)cc2)nc1C | Rango complex inh: -1.9%

# Screens deposited in PubChem BioAssay by National Center for Advancing Translational Sciences (NCATS).
